Vaccinia Venus – inhibitors of vaccinia virus (Venus reporter); Vaccinia virus Venus reporter expression, fluorescence; Potency, µM (series often up to 36.5 µM), for the others: top-dose activity change, negative = inhibition, actives largely listed as inhibitors; 330,000 tested, 0.46% active; AID 720580; active means well fitted inhibition curve with a large enough effect; inconclusive means small, poorly fitted or top-dose-only effect; inactive means no such curve, though single readings can be large or run the other way; tested in A549 cells; further: nearly all actives have a fitted effect of over 30% in size; inactives centre near -10
VACV mCherry inh – inhibitors of vaccinia virus infection (mCherry reporter signal); Potency, µM (series often up to 36.5 µM), for the others: at the top dose activity change, negative = inhibition, actives largely listed as inhibitors; Vaccinia virus mCherry reporter infection, fluorescence; about a quarter of the inactives have no number; AID 720579; 310,000 tested, 0.63% active; active = well fitted inhibition curve with a large enough effect; inconclusive = small, poorly fitted or top-dose-only effect; inactive = no such curve, though single readings can be large or run the other way; tested in A549 cells; further: nearly all actives have a fitted effect of over 35% in size; inactives centre near -10
Starred values were filed as active, the others as inactive; i = inactive; ? = inconclusive; · = no result given; & = joins results of further samples; [ ] = another dose, or the depositor's remark. On the % scale 0 is the no-effect control and ±100 the full control effect; potency means the concentration at half of the fitted maximal effect.

| mol | VACV mCherry inh | Vaccinia Venus |
| --- | --- | --- |
| Cn1c(O)c(/C=N/Nc2ccccc2)c(=O)n(C)c1=O | -10% | 14% |
| CCCCCCC[C@H](N)[C@H](O)C(=O)N(C)[C@@H](CCS(C)=O)C(=O)N[C@@H](Cc1ccc(O)cc1)C(=O)N[C@@H](Cc1ccc(O)cc1)C(=O)O (some centres undefined) | ? | -20% |
| CCN1CCc2nc3sc(C(=O)c4ccccc4)c(N)c3cc2C1 | -29% | 15% |
| COc1ccc(S(=O)(=O)N2CCOC2CNC(=O)C(=O)NCc2ccc3c(c2)OCO3)cc1 (centres undefined) | -22% | -8% |
| CN1CCN(CC(=O)N/N=C/c2ccc(F)c(F)c2)CC1 | -7% | 2% |
| CCNC(=O)c1c(NC(=O)c2nc(S(=O)(=O)CC)ncc2Cl)sc2c1CCCC2 | -1%[7.34 µM] | 0%[7.34 µM] |
| Cc1c(-c2ccc(Cl)cc2)c(=O)oc2c(CN3CCCC3)c(O)ccc12 | -20% | -6% |
| Cc1c(CNC2CCCC(C)C2C)c(C(=O)O)c(C)n1Cc1ccccc1 (centres undefined) | -17% | -6% |
| NC(=O)CC[C@H](NC(=O)c1ccc(F)cc1)C(=O)OCC(=O)Nc1ccc(N2CCOCC2)cc1 | -20% | -14% |
| CN(C)c1ccc(C(=O)Nc2sc(Nc3ccccc3)nc2C(N)=O)cc1 | -19%[7.34 µM] | -10%[7.34 µM] |
| CCOc1cc(/C=N/Nc2ccccc2Cl)ccc1OCC(=O)O | i | -4% |
| COc1ncccc1-c1nnn(-c2ccccc2)n1 | -10% | -10% |

Remaining list, next part:
| mol | VACV mCherry inh | Vaccinia Venus |
| --- | --- | --- |
| CC(=O)Nc1ccc(NC(=O)c2ccc(CSc3ccccc3)o2)cc1 | -11% | -11% |
| Cc1ccc(NC(=O)CN2CCc3cc4c(cc3C2)OCCCO4)cc1C | ? | -20% |
| COc1ccc(-c2nc3ccc(Br)cn3c2Cc2cccc(F)c2)cc1OC | 0% | 0% |
| COc1ccc(CCNC(=O)COC(=O)C2CCCCC2)cc1 | -15% | -5% |
| COC(=O)c1c(SCC(=O)Nc2ccc(C)c(C)c2)nc(=O)[nH]c1C | -10% | -12% |
| O=c1c2cc(N3CCOCC3)ccc2[nH]c(=S)n1Cc1ccccc1Cl | -17% | -7% |
| O=C(NCc1ccon1)c1ccc(OC2CCN(CCc3ccccc3)CC2)cc1 | -14% | -12% |
| COc1ccc(CCNC(=O)c2cccc(S(=O)(=O)N3CCCC3)c2)cc1 | -21% | -8% |
| O=[n+]1c2c(n([O-])c3cc(Br)ccc31)CCC2 | -15% | -4% |
| CC(C)c1ccc(NC(=O)COC(=O)C2CCCCC2)cc1 | i | -4% |
| CCCOc1ccc(/C(O)=C2/C(=O)C(=O)N(CCN(C)C)C2c2ccc(O)c(OC)c2)cc1 (centres undefined) | -4%[1.46 µM] | -8% |
| O=C(Nc1ccnn1C1CCN(Cc2ccc(OC(F)F)cc2)CC1)C1CCCC1 | ? | -19% |

Other results follow:
| mol | VACV mCherry inh | Vaccinia Venus |
| --- | --- | --- |
| O=C(CNC(=O)c1ccc(S(=O)(=O)N2CCCC2)cc1)N/N=C/c1ccccc1 | -12% | 1% |
| CCCNc1nc(Nc2ccc([N+](=O)[O-])cc2)nc(N2CCOCC2)n1 | ? | -27% |
| Cc1nnc(NCc2ccco2)c2ccccc12 | · | -14% |
| Cc1cccc(-n2c(C)cc(C(=O)NC3CCCCC3)c2C)c1 | -11% | -24% |
| COc1ccc(CN2C(=O)NC3(CCCCCC3)C2=O)cc1F | -22% | ? |
| C1=Cc2ccccc2/C1=C/c1ccc2c(c1)OCO2 | -14% | -5% |
| COc1cccc(-c2nnc(SCc3nc4ccccc4[nH]3)n2N)c1 | -23% | -6% |
| COc1ccccc1C(C)NC(=O)Cc1ccsc1 (centres undefined) | -15% | -7% |
| CSc1nc(=NC(C)=O)ss1 | -14% | -7% |
| CC(OC(=O)c1nc(Cl)ccc1Cl)C(=O)NCc1ccccc1 (centres undefined) | i | 0% |
| CSc1ccccc1NC(=O)c1ccc2c(c1)CCN2S(C)(=O)=O | -7% | -2% |
| C/C(=N\Nc1nc(-c2ccc(C)cc2C)cs1)c1cc2ccccc2oc1=O | -2% | -12% |

Further records:
| mol | VACV mCherry inh | Vaccinia Venus |
| --- | --- | --- |
| CCN(CC)CCn1c(=S)[nH]c2cc(C(=O)NCCc3ccc(OC)c(OC)c3)ccc2c1=O | -9% | -8% |
| CCNC(=O)NC(=O)C(C)N1C(=O)NC(c2ccccc2)(c2ccccc2)C1=O (centres undefined) | -6% | 1% |
| Cn1c(N)c(C(=O)COC(=O)/C=C/c2ccccc2Cl)c(=O)n(C)c1=O | i | -7% |
| COC(=O)c1sccc1S(=O)(=O)Nc1ccc(C(O)(C(F)(F)F)C(F)(F)F)cc1 | 3% | -5% |
| O=C(N/N=C/C1CC2CCC1C2)c1ccc2c(c1)OCO2 (centres undefined) | -5% | 0% |
| O=C(CNC(=O)c1ccccc1Cl)NCCc1cccs1 | -8% | -8% |
| Cc1ccc(S(=O)(=O)N2CCC(C(=O)NNC(=O)c3cccnc3)CC2)cc1 | -13% | -17% |
| CCN1C(=O)c2ccccc2Sc2ccc(NC(=O)c3ccc(Cl)cc3)cc21 | -12% | -12% |
| Cc1nc2ccc(S(=O)(=O)NCC(=O)N3CCN(c4ccccn4)CC3)cc2s1 | i | -15% |
| Cc1ccc(S(=O)(=O)N2CCN(CC(=O)N/N=C\c3ccc(Cl)c([N+](=O)[O-])c3)CC2)cc1 | -13% | 9% |
| CCCN1C2CCCC1CC(NC(=O)c1ccc(Br)cc1)C2 (centres undefined) | i | -11% |
| COc1ccc(CCNC(=O)CSc2nc3ccccc3c3nc(CCN4CCCCC4)nn23)cc1OC | -7% | -1% |

Following part
| mol | VACV mCherry inh | Vaccinia Venus |
| --- | --- | --- |
| Cc1ccc(NC(=O)Cc2ccc(NC(=O)N3CCCCc4ccccc43)cc2)cc1 | -19% | -16% |
| CC(C)OCCCNC(=O)Cc1ccc(Br)cc1 | -14% | -14% |
| CC(=O)c1sc(N)c(C(=O)OC(C)C)c1C | · | ? |
| Clc1cc(/C=N\NC2=NCCN2)cc(Cl)n1 | -3% | -15% |
| O=C(CSc1nc(=O)n2cc(Cl)ccc2n1)NCCc1ccccc1 | i | -6% |
| Cc1ccc(CNC(=O)CNS(=O)(=O)c2cccs2)cc1 | -6% | 5% |
| C[C@H]1CN([C@@H](C)CO)S(=O)(=O)c2ccc(C#Cc3ccccn3)cc2O[C@@H]1CN(C)C(=O)C1CC1 | -27% | -21% |
| CCc1ccc(C(=O)Nc2cc(C)ccc2F)s1 | i | -18% |
| Clc1ccc(CSc2nc3ncccc3[nH]2)cc1 | 5% | -6% |
| Cc1ccc2nc3n(c(=O)c2c1)-c1cc2ccccc2cc1C(=O)NC3CC(C)C (centres undefined) | -23% | -15% |
| CC(=O)NCC(=O)Nc1ccc(Br)cc1C(=O)c1ccccc1 | 0% | -5% |
| COc1ccc(C(OCC(O)CN(C)C2CCCCC2)c2ccc(OC)cc2)cc1 (centres undefined) | -22% | -15% |

(cont.)
| mol | VACV mCherry inh | Vaccinia Venus |
| --- | --- | --- |
| CN(CC(=O)Nc1cccc(F)c1)CC(=O)Nc1ccc(Cl)cc1[N+](=O)[O-] | -19% | -5% |
| Cc1c(N(C)C)nc2ccccc2c1N | · | 4% |
| Cn1c(=O)nc2n(-c3ccc(Cl)c(Cl)c3)c3cc(Cl)ccc3cc-2c1=O | -5% | -6% |
| COc1cccc(N2CCN(c3ccc4nnc(CCC(=O)Nc5ccc(OC)c(OC)c5)n4n3)CC2)c1 | -12% | -11% |
| O=C(NCC1CC1)c1ccc2c(c1)S(=O)(=O)c1cc(Cl)ccc1C2=O | i | 0% |
| Clc1ccc(-c2nnc(CSc3nnc(-c4cccs4)o3)o2)cc1 | · | -13% |
| COc1ccc(NC(=O)NCc2c(-n3cccc3)sc3c2CCCC3)c(OC)c1 | -19% | -18% |
| CCOC(=O)c1c(O)cc(C)cc1Nc1ccccc1 | -47% | -1% |
| O=C(NCCCCc1ccccc1)C1CCCC1 | i | -8% |
| COc1ccc2[nH]c(=O)c(CN(C(=O)c3cccnc3)c3cc(C)ccc3C)cc2c1 | i | -7% |
| COc1ccc(-c2nc(C#N)c(NCCc3ccccc3)o2)cc1OC | -10% | -14% |
| Cc1ccc(NC(=O)C2(C)CCN2C(=O)Cc2cc(F)ccc2F)cc1 (centres undefined) | 16% | -14% |

(listing goes on)
| mol | VACV mCherry inh | Vaccinia Venus |
| --- | --- | --- |
| Cc1sc(NC(=O)CSc2nnnn2C(C)C)c(C#N)c1C | i | -1% |
| Cc1ccc(S(=O)(=O)CCC(=O)Nc2nnc(CC(C)C)s2)cc1 | ? | ? |
| Cc1ccc(-c2cc(-c3ccccc3)c(C#N)c(SCC(O)CS(=O)(=O)Cc3ccccc3)n2)cc1 (centres undefined) | -8% | -11% |
| Nc1nonc1-n1nnc(C(=O)N/N=C/c2ccncc2)c1CSc1ccccc1 | -4%[7.34 µM] | -1%[7.34 µM] |
| COc1ccc2ccc3c(c2c1)N=CC1(O3)N(C)c2ccccc2C1(C)C (centres undefined) | -13% | -3% |
| Cc1sc2nc(CN(C(=O)NCc3ccccc3)C3CCCC3)[nH]c(=O)c2c1C | 47%[activator] | -9% |
| O=c1ccn(CCc2c[nH]c3ccccc23)c2c1CCCC2 | -13% | -8% |
| O=C(Nc1ccccc1C(F)(F)F)C1CCN(S(=O)(=O)Cc2ccccc2)CC1 | 3% | -1% |
| CCCNC(=O)C1CC(c2ccccc2C(F)(F)F)=NO1 (centres undefined) | i | -11% |
| COc1cc(S(=O)(=O)N(Cc2ccco2)C2CCCC2)ccc1-n1cnnn1 | -23% | -21% |
| O=C(COc1ccccc1Cl)Nc1ccc2c(c1)OCCO2 | · | -19% |
| CCC1(c2ccc(F)cc2)NC(=O)N(CC(=O)NC2CC2)C1=O (centres undefined) | i | -4% |

(listing goes on)
| mol | VACV mCherry inh | Vaccinia Venus |
| --- | --- | --- |
| Cc1cccc(C2CC(c3ccccc3)Nc3nc(N)nn32)c1 (centres undefined) | 6% | 6% |
| Cc1ccccc1CCN(C(=O)Cn1nnc2ccccc21)C(C(=O)NCC1CCCO1)c1nc2ccccc2n1C (centres undefined) | i | -6% |
| COc1cc(C(C(=O)NC(C)(C)C)N(C(=O)CNC(=O)c2cccs2)c2ccc(C(C)C)cc2)cc(OC)c1OC (centres undefined) | -16% | -18% |
| Cc1sc2ccccc2[n+]1CCc1ccccc1 | -15% | -7% |
| C=CCN(C(=O)CNS(=O)(=O)c1ccccc1)C(C(=O)NCCOC)c1ccncc1 (centres undefined) | -7% | -2% |
| O=C(NCC(=O)N(c1ccccc1)C(C(=O)NC1CCCC1)c1cccnc1)c1cccs1 (centres undefined) | -12% | -15% |
| Cn1cc(Cl)c(C(=O)Nc2nc3ccccc3s2)n1 | i | -11% |
| Cc1oc2c(c1C(=O)Nc1cccc(C(=O)O)c1)CCCC2 | -1% | 10% |
| O=c1c2c3c(sc2nc2sc(C4CC4)nn12)CCCC3 | · | -16% |
| CC(C)Oc1ccc(CNC(=O)Cn2c(=O)oc3ccccc32)cc1 | -10% | 2%&-6% |
| O=c1ccc2cc(O[C@H]3OC(CO)C(O)C(O)C3O)c(O)cc2o1 (some centres undefined) | i | -1%&-11% |
| CCOc1ccc(NC(=O)c2cc3c(=O)n4cccc(C)c4nc3s2)cc1 | 0% | -3% |

The list continues.
| mol | VACV mCherry inh | Vaccinia Venus |
| --- | --- | --- |
| COc1ccc(NS(=O)(=O)/C=C/c2ccccc2)cc1 | -9% | -12% |
| COc1cc(-c2nnc(SCC(=O)Nc3ccc(F)c(Cl)c3)o2)cc(OC)c1OC | -18% | -3% |
| Cc1cccc(OCC(=O)Nc2ccc3oc(=O)ccc3c2)c1 | -11% | 3% |
| Cn1c2ccccc2c(=O)c2c(=O)n(C3CCCCCC3)c(C3CCCCC3)nc21 | i | -13% |
| CC(C)(C)c1cc(NC(=O)C2(C)CCN2C(=O)C2(c3ccccc3)CCCC2)no1 (centres undefined) | 12% | -2% |
| Cc1nc2cc(-c3ccc(Cl)cc3)nn2c(C)c1CCC(=O)NC(C)c1ccc2c(c1)OCCO2 (centres undefined) | ? | ? |
| Cc1ccc(CONC(=O)c2ccccc2Cl)cc1 | i | -11% |
| COc1ccccc1NC(=O)c1cc(C)nc2ccccc12 | i | -16% |
| COCCCNC(=O)C1CC(=O)N(C2CCCC2)C1 (centres undefined) | -5% | -14% |
| O=C(CN1C(=O)CCn2nc(-c3ccccc3)cc21)NCc1ccccc1 | -12% | -5% |
| CCn1c(CNS(=O)(=O)c2ccc(Cl)cc2)n[nH]c1=S | i | -3% |
| COc1ccccc1Nc1n[nH]c(=S)s1 | -18% | -10% |

Entries of single compounds as entered above.
Listed for COc1ccccc1NC(=O)c1cc(C)nc2ccccc12 = VACV mCherry inh = i; Vaccinia Venus = -16%
Listed for COc1ccc(NS(=O)(=O)/C=C/c2ccccc2)cc1 = VACV mCherry inh = -9%; Vaccinia Venus = -12%

The listing continues.
| mol | VACV mCherry inh | Vaccinia Venus |
| --- | --- | --- |
| COC(=O)[C@H](C(C)C)N(Cc1ccccc1)S(=O)(=O)CCN1CCN(c2ccccc2)CC1 | -25% | ? |
| O=C1[C@@H](c2ccccc2)[C@@H](c2ccccc2)N1c1cccnc1 | ? | ? |
| O=C(COc1ccccc1)NC(=S)Nc1cccc2c(O)cccc12 | -12% | -13% |
| Oc1ccc(/C=N/N(c2ccccc2)c2ccccc2)cc1O | ? | -8% |
| CCCC(=O)Nc1nc(C(=O)OCC)cs1 | -2% | -17% |
| Cc1ccc2c(N)c(C(=O)c3ccccc3)sc2n1 | ? | -30% |

An unsorted share of the library. About 0.88% of those tested had a hit in this group.
